Assay outcomes (PubChem)
Biofilm kill mix: mixture kills Candida albicans biofilm cells | inhibition, % at 7.6 µM | C. albicans biofilm persisters + clotrimazole, fluorescence viability; primary screen in compound mixtures of four per well | 0.02% of 120,000 active | AID 1242;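 active = inhibition above 30.3% in the primary screen of four-compound pools, then above 30% when the compound was retested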;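 also: compounds exposed to preformed 24 h biofilms for 48 h; the number belongs to the whole pool; some results filed as inactive read as strong as hits; inactives centre near 12; 0% = biofilm with clotrimazole alone and 100% = kill control; retested singly at about 60 µM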
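Test system: C. albicans biofilms. Buffer or medium: RPMI/MOPS medium, pH 7.0. Timing: 48 h compound exposure at 37 °C. Technique: Alamar Blue fluorescence. Evaluation: percent inhibition of biofilm viability.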
* hit, by the source's call. This is a subset; the hit share may differ from the screen's.

SMILES | Biofilm kill mix
CCN(CC)S(=O)(=O)c1ccc(C)c(NC(=S)Nc2cccc(S(=O)(=O)N3CCCCCC3)c2)c1 | 8.6
COc1ccc(NS(=O)(=O)c2cc(NC(=O)CCSc3ccccc3)ccc2OC)cc1 | 20.9
Cc1ccc(-c2nc3[nH]c(=O)cc(NC(=O)c4cccs4)n3n2)cc1 | 20.4
COC(=O)C(OC(=O)c1ccc(OC)cc1)C(=O)OC | 6.1
CCCc1cc(-c2n[nH]c(=S)n2-c2cccc(C)c2)cs1 | 15.6
Clc1cc2nc[nH]c2cc1Cl | 10.1
COc1ccc(/C=C/c2nc(C)c(-c3ccccc3)c(=O)[nH]2)cc1OC | 3.8
Cc1cc([N+](=O)[O-])nn1CCCC(=O)Nc1cc(Cl)ccc1Cl | 5.9
Cc1nn(C)c(C(=O)Nc2cccc(CN3CCOCC3)c2)c1Br | 11.1
CN(C)C(C)(C)C#CC(O)(c1ccccc1)c1ccccc1 | 20.3
Cc1cc(C)n(-c2ccc3nnc(C)n3n2)n1 | 31.0
Cc1ccccc1NC(=O)Cn1c(CCC(=O)O)ccc1-c1cccs1 | 16.2
CS(=O)(=O)N(Cc1ccccc1)c1ccc(C(=O)NCCSCc2ccco2)cc1 | 12.3
N#Cc1ncc(C(F)(F)F)cc1Oc1cccnc1 | 11.9
O=C(CN1c2cccc3cccc(c23)S1(=O)=O)Nc1ccccc1 | 15.2
CN1CCN(c2ccc(NC(=O)c3ccc4c(c3)[nH]c(=O)n4Cc3ccc(F)cc3)cc2)CC1 | 10.7
CC(=O)OC[C@H]1O[C@H](C/C=N/O[C@@H](C)c2cn([C@H](CO)Cc3ccccc3)nn2)C=C[C@@H]1OC(C)=O | 6.3
CN(C)CCCNC(=S)Nc1ccc(Oc2ccccc2)cc1 | -5.5
CNC(=O)C1=C(C)NC(=S)NC1c1cc2c(cc1OC)CCCC2 (stereo not given) | 7.6
CC1CC(C)CN(S(=O)(=O)c2ccccc2[N+](=O)[O-])C1 (stereo not given) | -1.4
CS(=O)(=O)n1nc(-c2ccccc2)nc1NCc1ccco1 | 13.5
Cc1cc(C)c(C)c(OC(=O)c2sc(Cl)nc2C)c1 | 18.4
C/C=C/c1ccc(OCCOc2cccc3cccnc23)c(OC)c1 | 18.6
CN(C)S(=O)(=O)c1ccc(Cl)c(NC(=O)COC(=O)C2CCCO2)c1 (stereo not given) | 13.6
O=C(Nc1cccc(-c2nnc(-c3ccco3)o2)c1)c1ccccc1 | 3.8
More records.
SMILES | Biofilm kill mix
CCCCOC(=O)c1ccc(NC(=O)CSc2nnnn2C)cc1 | 6.2
CC(=O)c1cccc(NC(=S)NC(=O)c2ccc(C)cc2Cl)c1 | 16.8
O=C(O)CC1(CC(=O)Nc2ccccc2N2CCOCC2)CCCC1 | -3.0
CCCC/C(=N\NC(=O)c1ccc(Br)o1)c1ccccc1 | 15.5
Cc1cc(NCCCO)n2c(nc3ccccc32)c1C#N | 4.7
O=C(O)CCN1c2ccccc2Sc2ccccc21 | 6.9
CC(O)C(NS(=O)(=O)c1ccc(Cl)cc1)C(=O)OCC(=O)c1c[nH]c2ccccc12 (stereo not given) | 11.9
CNC(=O)Nc1cccc(-c2ccnc(C)n2)c1 | 9.2
CCC(C)NS(=O)(=O)c1ccc(NC(=O)c2cccs2)cc1 (stereo not given) | 2.8
Cc1c(C(=O)N/N=C/c2cccs2)nc2ccccn12 | 11.6
Nc1cccc2c1nnn2C1OC(CO)C(O)C(O)C1O (stereo not given) | 14.1
CCN(CC)C(=O)c1sc2nc(-c3ccccc3)ccc2c1N | 16.1
O=Cc1cc(N=Nc2ccccc2Cl)ccc1O | 11.6
Cc1ccc(NC(=O)Cn2cc(C(F)(F)F)cc(Cl)c2=O)cc1Cl | -2.9
CSc1nc(N)n2nc(-c3ccccc3)cc2n1 | 17.9
O=C(Nc1ccc(S(=O)(=O)N2CCOCC2)cc1)c1ccc2c(c1)S(=O)(=O)c1ccccc1C2=O | 18.7
C/C(=N/NC(=O)CC1N=C(Cc2ccccc2)NNC1=O)c1cccnc1 (stereo not given) | 13.9
C=CCSc1nnc(NC(=O)c2ccc(NC(C)=O)cc2)s1 | 11.8
O=C(Nc1ccccc1C(=O)NCc1cccnc1)c1cccc([N+](=O)[O-])c1 | 0.6
CCC1CCC/C1=N\NC(=O)CCC(=O)Nc1ccccc1Cl (stereo not given) | 16.1
CCc1cc(S(N)(=O)=O)cc(CC)c1NC(C)=O | 14.9
COc1cccc(CN2CCC(CO)(CC3CCCCO3)CC2)c1 (stereo not given) | 0.8
Cc1ccc(NC(=S)N(Cc2ccco2)C(C)c2cccs2)c(Cl)c1 (stereo not given) | 8.1
CCOC(=O)N1CCC(NC(=O)c2ccccc2C(=O)O)CC1 | 24.1
CNCCCOc1ccc(Cl)cc1C(C)(C)C | 15.8

Given with each value named: entries from further up
molecule: CNC(=O)Nc1cccc(-c2ccnc(C)n2)c1
  Biofilm kill mix: 9.2

molecule: CCCC/C(=N\NC(=O)c1ccc(Br)o1)c1ccccc1
  Biofilm kill mix: 15.5

molecule: CC(=O)c1cccc(NC(=S)NC(=O)c2ccc(C)cc2Cl)c1
  Biofilm kill mix: 16.8

The listing picks up; the seven compounds before the break are reprinted first.
SMILES | Biofilm kill mix
O=C(Nc1ccccc1C(=O)NCc1cccnc1)c1cccc([N+](=O)[O-])c1 | 0.6
CCC1CCC/C1=N\NC(=O)CCC(=O)Nc1ccccc1Cl (stereo not given) | 16.1
CCc1cc(S(N)(=O)=O)cc(CC)c1NC(C)=O | 14.9
COc1cccc(CN2CCC(CO)(CC3CCCCO3)CC2)c1 (stereo not given) | 0.8
Cc1ccc(NC(=S)N(Cc2ccco2)C(C)c2cccs2)c(Cl)c1 (stereo not given) | 8.1
CCOC(=O)N1CCC(NC(=O)c2ccccc2C(=O)O)CC1 | 24.1
CNCCCOc1ccc(Cl)cc1C(C)(C)C | 15.8
CS/C(=N\S(=O)(=O)c1cccs1)Nc1ccc(F)cc1 | 12.3
Cc1ccccc1CN1C(=O)c2ccccc2Sc2ccc(C(=O)O)cc21 | 7.2
O=C(N/N=C/c1ccc(N2CCOCC2)o1)c1ccccc1[N+](=O)[O-] | 6.0
CCn1nnnc1-c1ccc(OC)c(S(=O)(=O)Nc2ccc(S(N)(=O)=O)cc2)c1 | 1.4
O=C(Nc1ccc(N2CCOCC2)cc1)c1ccccc1SCC(=O)N1CCCC1 | 5.0
Cc1ccc(S(=O)(=O)c2nnn(-c3cccc(F)c3)c2N)cc1 | 14.4
Cc1cccc(C)c1NC(=S)N/N=C1\CC2CC=CC12 (stereo not given) | 10.2
O=C(N/N=C/c1ccncc1)c1ccc(-n2cccc2)cc1 | 16.8
CC1=NN(c2ccc(Cl)cc2)C(=O)C1C(c1ccccc1O)c1c(C)[nH]n(-c2ccc(Cl)cc2)c1=O (stereo not given) | 4.8
CC(C)(C)c1ccc(OCc2ccc(C(=O)NCc3cccnc3)o2)cc1 | 10.4
CCOC(=O)C1=C(C)OC(N)=C(C#N)C1c1ccc(OC)c(CSc2ccccn2)c1 (stereo not given) | 17.0
CC(=O)Nc1cccc(/C(C)=N/NC(=O)c2cccs2)c1 | 14.8
Cc1cc(C)c(OCCCCN(C)C)c(Br)c1 | 7.5
O=C(NC(Cc1ccccc1)c1nc2ccccc2[nH]1)c1ccc(Cl)c([N+](=O)[O-])c1 (stereo not given) | 18.6
COc1ccc(Cn2c(O)c(/C=C3/C=CC=N3)c(=O)[nH]c2=O)cc1 | 11.9
O=C(O)[C@H]1CCCC[C@H]1C(=O)Nc1ccc(Nc2ccccc2)cc1 | 7.3
Cc1c(N/C(=N/S(=O)(=O)c2ccc(Cl)cc2)c2ccccc2)c(=O)n(-c2ccccc2)n1C | 19.1
S=c1[nH]nc(-c2ccco2)n1-c1ccccc1Cl | 9.3
O=C1CCCC/C1=C/NCc1ccccc1 | 9.3
CC(=O)N1CCCN(Cc2cn(-c3ccc(C)cc3)nc2-c2cccc(C)c2)CC1 | 9.5
COc1ccsc1C(=O)Nc1ccc(F)cc1F | 1.4
Cc1ccc(NC(=O)Cn2nnc3ccccc3c2=O)cc1C | 11.8
C[C@H](NC(=O)OCc1ccccc1)c1nnc([C@H](C)NC(=O)OCc2ccccc2)o1 | 20.7
CCSc1nnc(NC(=O)[C@H](C)NC(=O)c2ccccc2Cl)s1 | 9.2
Cc1ccc2c(c1)nc(-n1nc(C)cc1C)c1nnnn12 | 5.9
Continuation:
SMILES | Biofilm kill mix
Cc1ccc(CNC(=O)C(NS(=O)(=O)c2cccc3nsnc23)c2ccccc2)cc1 (stereo not given) | 11.8
CC(C)(C)C1CCC(C(=O)OCC(=O)c2ccc[nH]2)CC1 (stereo not given) | 12.1
O=C(O)COc1ccc(/C=N/NC(=O)c2ccc(-c3csc(Nc4ccc(Cl)cc4)n3)cc2)cc1 | 20.6
CC(C)=NNc1nc2c(c(=O)n(C)c(=O)n2C)n1C | -10.6
CC(=O)c1ccc(OCC(=O)c2ccc(-c3ccccc3)cc2)cc1 | -0.7
COC(=O)c1cc(OC)c(OC)c(OC)c1[N+](=O)[O-] | 15.6
O=C(CSc1ccc(Cl)cc1)N1CCCC1 | 4.0
O=C(O)c1cccnc1Sc1ccccc1 | 5.9
Cc1ccc(C(C[N+](=O)[O-])Sc2ccc(N)cc2)cc1 (stereo not given) | 20.1
CCOc1ccc(NCc2ccccc2OCc2cccc(F)c2)cc1 | 12.7
COc1cc(OC)c(-c2noc(C(=O)OC(C)(C)C)c2C(=O)OC(C)(C)C)c(OC)c1 | 11.1
COc1nc(-c2ccccc2)cc(-c2ccc3c(c2)OCO3)c1C#N | 26.7
COc1ccc([N+](=O)[O-])cc1NC(=S)NC(=O)C(C)(C)C | 9.1
COc1cc(C=O)ccc1Oc1cnccn1 | 9.8
COc1ccc(C(C)=O)cc1COC(=O)c1cnc(Cl)c(Cl)c1 | 7.0
Clc1cccc(N=NN2CCOCC2)c1Cl | 24.6
Cc1ccccc1CSc1nnc2ccc(-c3ccncc3)nn12 | 15.4
O=C(NCc1ccc2c(c1)OCO2)c1ccc2c(c1)OCO2 | 15.5
Cn1cnnc1SCC(=O)c1ccc(O)c(O)c1 | 6.7
CCOC(=O)c1c(NC(=O)COC(=O)c2ccc(O)cc2)sc(C(=O)N(C)C)c1C | 10.3
Cc1cc2c(c(SCC#N)n1)C(=O)OC2 | 13.2
Nc1cc(S(=O)(=O)N2CCCCC2)ccc1N1CCOCC1 | 14.9
CCOP(=O)(OCC)C(NC(=O)Nc1ccc(Cl)cc1)C(=O)N(CC)CC (stereo not given) | 14.1
CC(=O)Nc1cccc(N=NN2CCOCC2)c1 | 0.3
O=C(Nc1cccc(F)c1)Nc1ccc2c(c1)C(=O)OC2 | 21.1

By substructure, those above containing bromine
SMILES | Biofilm kill mix
Cc1nn(C)c(C(=O)Nc2cccc(CN3CCOCC3)c2)c1Br | 11.1
CCCC/C(=N\NC(=O)c1ccc(Br)o1)c1ccccc1 | 15.5
Cc1cc(C)c(OCCCCN(C)C)c(Br)c1 | 7.5

Next part.
SMILES | Biofilm kill mix
COc1cccc(-n2c(=S)[nH]c3c(oc4ccccc43)c2=O)c1 | 25.5
O=C(N/N=C/c1cc([N+](=O)[O-])c(N2CCOCC2)cc1N1CCOCC1)c1cccnc1 | 16.6
O=C(Oc1ccccc1)c1cccc2cccc(C(=O)Oc3ccccc3)c12 | -0.9
O=C1CCC(c2ccccc2)(c2ccccc2)CC1 | 12.4
COc1cccc(/C=C(/C(=O)OCC(=O)NCC2CCCO2)c2ccccc2)c1 (stereo not given) | 2.3
CCOc1ccc(NC(=O)C(=O)NCc2ccncc2)cc1 | 10.2
C=CCOc1ccc(CNc2ccc3[nH]c(=O)[nH]c3c2)cc1OCC | -3.9
CC(=O)c1ccc(NC(=S)NCCc2ccccn2)cc1 | 9.8
CC(Nc1cccc2ccccc12)C(=O)N/N=C/c1ccc([N+](=O)[O-])cc1 (stereo not given) | 13.4
Cc1cccc2sc(N(CCCN(C)C)C(=O)c3ccco3)nc12 | 5.3
CNC(=S)N/N=C(\C)c1ccc2c(c1)OCO2 | 10.4
COc1ccc(C2=NN(C(=O)CN3CCOCC3)C(c3nc4ccccc4[nH]3)C2)cc1 (stereo not given) | 9.0
COc1ccc(/C=C(\NC(=O)c2ccccc2)C(=O)OCC2CCCN3CCCCC23)cc1OC (stereo not given) | 14.5
CCOc1ccc(/C=C/C(=O)Nc2ccccc2C(F)(F)F)cc1 | 3.9
CCn1c(=N)n(CC(O)c2cccs2)c2ccccc21 (stereo not given) | 32.7
CC(C)CC(NC(=O)c1cccc(Cl)c1)C(=O)O (stereo not given) | 18.5
O=C(O)c1ccccc1SC1CC(=O)N(c2ccccc2)C1=O (stereo not given) | 18.8
O=c1oc2ccc3ccccc3c2cc1-c1nnc(-c2cccs2)o1 | 14.3
COc1ccc(N2CCN(c3cc(C)c4ccc(C)cc4n3)CC2)cc1 | 13.9
COc1ccc(CCN2C(=O)CN=C2Nc2ccc(F)cc2)cc1OC | 5.4
CC(OC(=O)c1ccc2c(=O)n3c(nc2c1)CCCCC3)C(N)=O (stereo not given) | 7.9
Cc1cc(C)nc(-n2ncc3c2CC(c2cccc(Cl)c2)CC3=O)n1 (stereo not given) | 12.3
CCOC(=O)c1cn2nc(Oc3ccc(OC)cc3)ccc2n1 | 8.4
COC(=O)c1sc(NC(=O)/C=C/c2ccc(C)o2)nc1C | 16.1
Oc1ccc(Cl)cc1-c1cc(-c2ccccc2Cl)[nH]n1 | 17.1
c1ccc(Oc2ccc(-c3ccnc4nc(N5CCOCC5)nn34)cc2)cc1 | 17.4
O=C(NNC(=S)NCc1ccccc1)c1ccccc1OC(F)F | 8.6
OCC1(CC2CCCCO2)CCN(Cc2ccccc2-c2ccco2)CC1 (stereo not given) | 4.3
Cn1cc(C(F)(F)F)nc1-c1ccc(OCC(O)CNCCOc2ccc(O)c(C(N)=O)c2)cc1 (stereo not given) | 15.5
